HIV TAR-Tat – HIV-1 TAR-Tat binding disruption; HIV-1 TAR RNA, Tat peptide displacement FRET; active compounds read high; z-score (test concentration not listed); 0.6% of 100,000 active;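 further: score is relative to mean and SD of negative controls; some compounds called inactive have numbers as strong as hits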
CDC25B-CDK2 inh – human CDC25B-CDK2/CyclinA binding inhibition; 0.72% of 94,000 active; HTRF CDC25B-CDK2/CyclinA binding, anti-His/anti-Flag; active compounds read high; P30305+P24941; z-score (test concentration not listed);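 further: score is relative to mean and SD of negative controls; strong numbers were not always called active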
Starred values were filed as active, the others as inactive; / = not tested or not shown.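 How the source made its calls: active means z-score from 3 up in half or more of its runs; inactive means the rest.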

SMILES	HIV TAR-Tat	CDC25B-CDK2 inh
CNC(=S)NNC(=O)c1ccccc1	/	-0.64
CCOc1ccccc1NC(=O)N1c2ccccc2NC2=C(C(=O)CCC2)C1c1cccs1 (stereo not drawn)	21.1*	/
CC(=O)N1c2ccccc2NC2=C(C(=O)CC(C)(C)C2)C1c1cccs1 (stereo not drawn)	/	-0.33
CC(C)NC(=O)Cn1c(=O)n(CC2CCC(C(=O)N3CCCC3)CC2)c(=O)c2sccc21 (stereo not drawn)	-0.14	/
COC(=O)CN1C(C(=O)c2ccccc2)=C(OC(=O)c2ccco2)c2ccccc2S1(=O)=O	2.02	-1.14
CC(C)OC(=O)C1C2C=CC3(CN(Cc4cccs4)C(=O)C13)O2 (stereo not drawn)	0.7	2.28
Cn1cnc(S(=O)(=O)N2CCCC(C(=O)NC3CCCC3)C2)c1 (stereo not drawn)	1.45	/
COc1ccc(CCN2C(=O)C(C)SC2c2cccnc2)cc1 (stereo not drawn)	/	-1.62
COc1cccc(OCCN2CCN(c3ncnc4sc5c(c34)CCCC5)CC2)c1	0.9	/
N=C(N)c1ccccc1	/	-1.22
COC(=O)c1sc(N2C(=O)c3oc4ccccc4c(=O)c3C2c2cccnc2)nc1C (stereo not drawn)	-0.56	-1.27
Cc1ccc(C(=O)C#Cc2ccccc2)cc1	/	0.55
CC1CCCC(NC(=O)CN(C)S(=O)(=O)c2ccc3c(c2)CC(C)N3C(=O)C2CC2)C1C (stereo not drawn)	1.64	/
O=C1NC2C3CC4CC(C3)CC2(C4)O1 (stereo not drawn)	/	-1.72
COc1cc2c(c(OC)c1)C(c1ccc(SC)cc1)CC(=O)N2 (stereo not drawn)	-0.54	-0.82
Cc1c(C(=O)Nc2ccc(Br)cc2)nnn1-c1ccc(F)cc1	-0.3	1.01
CC(C)Nc1c(-c2ccccc2)oc2ccc(C(=O)O)cc2c1=O	/	-0.93
Cn1ccc(-c2cccc([N+](=O)[O-])c2)n1	/	-1.38
CNC(=O)c1c(NC(=O)C2COc3ccccc3O2)sc2c1CCCC2 (stereo not drawn)	1.98	4.9
COc1ccc(C(=O)NC2=NCCS2)cc1OC	-10.3	-0.49
Oc1c(Cl)cc(Cl)cc1/C=N/NC(=S)NNc1ccccc1	/	-0.41
Cc1ccc(Cl)cc1NC(=O)CSCC(=O)O	/	-0.93
O=C(O)c1c(C(=O)O)c2ccccc2[nH]c1=O	0.69	2.02
O=C(C1COc2cc(S(=O)(=O)N3CC=C(c4ccccc4)CC3)ccc2O1)N1CCCCC1 (stereo not drawn)	0.35	/
Cc1cc(C)nc(SCc2n[nH]c(=S)o2)n1	/	-2.69

The final 7 entries of the section before are carried over, then new ones follow.
SMILES	HIV TAR-Tat	CDC25B-CDK2 inh
CNC(=O)c1c(NC(=O)C2COc3ccccc3O2)sc2c1CCCC2 (stereo not drawn)	1.98	4.9
COc1ccc(C(=O)NC2=NCCS2)cc1OC	-10.3	-0.49
Oc1c(Cl)cc(Cl)cc1/C=N/NC(=S)NNc1ccccc1	/	-0.41
Cc1ccc(Cl)cc1NC(=O)CSCC(=O)O	/	-0.93
O=C(O)c1c(C(=O)O)c2ccccc2[nH]c1=O	0.69	2.02
O=C(C1COc2cc(S(=O)(=O)N3CC=C(c4ccccc4)CC3)ccc2O1)N1CCCCC1 (stereo not drawn)	0.35	/
Cc1cc(C)nc(SCc2n[nH]c(=S)o2)n1	/	-2.69
NC(=O)C1(N2CCCCC2)CCN(C2CC(=O)N(c3ccccc3Cl)C2=O)CC1 (stereo not drawn)	-0.15	-0.99
NC(=O)C1CCN(C(=O)C2CCN(C(=O)c3cnn(-c4ccccc4)c3-n3cccc3)CC2)CC1	-0.42	-0.71
CCCn1nc(SCC(=O)OCC)n2c(=O)c3c(nc12)-c1ccccc1CC3(C)C	1.17	-0.84
CCOC(=O)c1c(C)[nH]c(C)c1S(=O)(=O)N1CCCC(C(=O)NCc2cccs2)C1 (stereo not drawn)	0.78	/
CC1(C(=O)NC2CCCC2)Cn2c(ccc2-c2ccco2)C(=O)N1C1CC1 (stereo not drawn)	-0.18	/
Cc1nc(Nc2nc3ccccc3o2)nc(-c2ccc(Cl)cc2)c1C#N	-0.24	1.09
O=c1cc(CSc2nc3ccccc3s2)[nH]c2[nH]n(-c3ccccc3)c(=O)c12	6.24*	2.37
Cn1c(=O)oc2cc(S(=O)(=O)N3CCCC(C(=O)Nc4ccccn4)C3)ccc21 (stereo not drawn)	1.21	-0.2
CCN(CC)C(=O)CSc1nc(-c2ccc(Cl)cc2)nc2c1Cc1c(CO)cnc(C)c1O2	0.56	/
CSc1ccc2nnc(-c3ccc(F)cc3)n2n1	/	-0.88
O=C1Cc2cc(S(=O)(=O)Nc3ccc(F)cc3)cc3c2N1CCC3	1.68	/
O=C(NCc1ccccn1)c1ccc(Cn2c(SCc3ccccc3)nc3cccnc32)cc1	-1.49	/
Cc1ccc(C)c(N2CCN(c3nn4nnnc4c4ccccc34)CC2)c1	2.29	-1.78
COc1ccc(-c2nnc(SCC(=O)OCc3ccccc3)o2)cc1	1.31	-2.21
CNC(=O)C(Sc1nnc(NC(=O)c2ccc(Cl)cc2)s1)C(C)=O (stereo not drawn)	/	-0.29
CCOc1cc(C2c3sc(=O)[nH]c3SC3C4CCC(C4)C23)ccc1O (stereo not drawn)	-0.36	-0.21
CCOC(=O)N1CCC(NC(=O)c2csc3c2CCCCC3)CC1	-0.34	-3.21
N#CC(C(=O)C1CC1)=C1SCCS1	/	-1.31
Cc1ccc(OC(C)c2nc3ccc(F)cc3[nH]2)cc1 (stereo not drawn)	1.26	0.8
COc1ccc(-n2c(SCC(=O)NCC3CCCO3)nc3c(c2=O)SCC3)cc1 (stereo not drawn)	1.45	-2.63
Cc1ccc(CNC(=O)Cn2c(=O)oc3ccccc32)o1	/	0.37
COc1ccc(Cl)cc1NC(=O)Nc1c[nH]c(=O)[nH]c1=O	2.47	/
Cc1csc(NC(=O)CSc2nc(-c3ccc(F)cc3)cc(-c3ccccc3)c2C#N)n1	/	-11
CCN(CC)S(=O)(=O)c1ccc2c(c1)NC(=O)CC(=O)N2	-1.4	/
O=C(NCCCN1CCCC1)C1CCN(c2nnc(N3CCCC3=O)s2)CC1	-0.03	-1.04

The listing continues:
SMILES	HIV TAR-Tat	CDC25B-CDK2 inh
CN(C)S(=O)(=O)c1ccc2nc(NC(=O)c3cccc(S(C)(=O)=O)c3)sc2c1	1.77	/
CC(C)c1ccc(NC(=O)Cn2cccc(C(F)(F)F)c2=O)cc1	/	-1.51
Cc1ccnc(NC(c2cccc(C)n2)c2ccc3cccnc3c2O)c1 (stereo not drawn)	/	-4.98
CSc1cccc(N2CC(c3nc4ccccc4n3CCCN(C)C)CC2=O)c1 (stereo not drawn)	-0.21	-1.01
COC(=O)CN1C(=O)CCS(=O)(=O)c2ccccc21	2.6	-0.64
C(#Cc1ccccc1)CN1CCCCC1	1.87	-1.2
Nc1cscc1S(=O)(=O)c1ccccc1	/	-0.55
CCOc1ccc(-n2c(O)cnc2Nc2nc(C)cc(C)n2)cc1	-0.91	-0.87
CCN(CC)CCOC(=O)c1cnn2c(C(F)(F)F)cc(-c3ccc(F)cc3)nc12	0.67	-1.25
Cc1cc2nc3s/c(=C/c4ccc(-c5ccc(Cl)c(C(=O)O)c5)o4)c(=O)n3c2cc1C	/	-3.49
CC1CCCN(C(=O)c2cc3c(s2)-c2ccccc2OC3)C1 (stereo not drawn)	4.19	-0.53
Cn1c(=O)c2sccc2n2c(CCC(=O)NCCc3c[nH]c4ccccc34)nnc12	-0.57	-1.64
CN(Cc1ccco1)c1ncnc2onc(-c3ccc(Cl)cc3)c12	1.85	/
O=C1CCc2cc(S(=O)(=O)NC(Cc3ccccc3)C(=O)NC3CCCCC3)ccc2N1 (stereo not drawn)	/	-0.46
NC(=O)CCc1nc(-c2ccco2)no1	1.35	-1.23
CCOC(=O)c1sc(CS(=O)(=O)c2ccc(Cl)cc2)nc1C	/	-0.96
CN(C(=O)CSc1nc2ccc(NC(=O)c3ccco3)cc2s1)c1ccccc1	2.33	1.76
Cc1ccc(CNc2ncnc3scc(-c4ccc(F)cc4)c23)o1	-0.17	/
CN(CCc1noc(-c2ccccc2)n1)S(=O)(=O)c1cccc2nsnc12	2.57	/
O=S(=O)(Cc1nnc(-c2ccccc2)o1)c1ccccc1	-0.27	-1.48
CCOC(=O)c1c(C)n(C)c2cc(-c3ccc(C)cc3)c(O)cc12	-0.39	0.4
Cc1ccc2c(c1)C(O)(CC(=O)c1ccccc1)C(=O)N2 (stereo not drawn)	-0.19	-0.28
CC(=O)[C@@]1(O)C(C)CC2C3CC[C@H]4C[C@H](OC(=O)c5cccc(I)c5)CCC4(C)C3=CCC21C (stereo partly drawn)	/	-1.5
O=C(Nc1cccnc1)c1noc2c1CCc1ccccc1-2	/	-0.89
Cc1cc(N2CCc3ccccc3C2)n2nc(Cc3ccccc3)nc2n1	0.42	0.24

New compounds follow:
SMILES	HIV TAR-Tat	CDC25B-CDK2 inh
Cc1cc(C)cc(OCC(=O)N2N=C(C3CCCCC3)CC2(O)C(F)(F)F)c1 (stereo not drawn)	/	0.66
Cn1c(-n2cccc2)c(-c2c(-c3ccc(Cl)cc3)[nH]c3c2c(=O)n(C)c(=O)n3C)c(=O)n(C)c1=O	-0.8	-1.26
N#Cc1c(C2CCCCC2)nc(Sc2ccc(C(F)(F)F)cc2[N+](=O)[O-])[nH]c1=O	/	-0.87
O=S(=O)(c1ccc(Oc2ccccc2)cc1)N1CCc2ccccc2C1	/	1.58
Cc1nn(C)c(C)c1NC(=O)c1ccccc1N	/	-1.1
CCC1CCCCN1CCCNC(=O)C1CCN(c2ncnc3c2nc2n3CCCCC2)CC1 (stereo not drawn)	-1.7	/
O=S(=O)(Nc1ccc2c(c1)OCCO2)c1cccs1	/	-0.08
COc1ccc(OC)c(S(=O)(=O)NCCc2csc(-c3ccc(F)cc3)n2)c1	-0.41	/
Cn1c(=O)n(C)c2cc(Sc3ccccc3)c(NS(=O)(=O)c3cccc4nsnc34)cc21	1.15	/
C=CCOC(=O)C1=C(C)N=C2SCCC(=O)N2C1c1ccccc1 (stereo not drawn)	0.82	-0.06
CN(C)c1ccc(/C=C/C2=Nc3ccccc3SC(C)(C)C2)cc1	-1.7	-1.9
CCn1cc2nc(SCc3ccccc3)n(Cc3ccccc3)c(=O)c2n1	0.68	/
NC(N)=NC(N)=Nc1cccc(Cl)c1	/	-1.47
Cc1ncc(-c2ccc(S(=O)(=O)Nc3ccc(F)cc3F)cc2)o1	0.9	/
CCOc1ccc(NS(=O)(=O)c2ccc(-c3n[nH]c(C)c3C)s2)cc1	0.94	/
CC(C)CCn1c(N2CCNCC2)nc2c1c(=O)[nH]c(=O)n2C	/	-1.43
CCCN1C(=O)C(O)(CC(=O)c2ccc(C)o2)c2ccccc21 (stereo not drawn)	-0.49	0.02
O=C(Cn1c(=O)c2cccn2c2ccccc21)N1CCc2ccccc2C1	1.03	-1.25
OCCNc1ccc2nnc(-c3ccc(Br)cc3)n2n1	/	-0.45
CCC1Sc2ccc(S(=O)(=O)Nc3ccc(F)cc3)cc2NC1=O (stereo not drawn)	1.04	/
O=C(Cn1cnc2nc3c(cc2c1=O)CCCC3)NCc1ccc2c(c1)OCO2	1.27	/
CCOC(=O)c1cc(NS(=O)(=O)c2ccc(Cl)cc2)ccc1Oc1cncc(Cl)c1	/	-0.64
Cn1c(C(=O)NCc2ccccn2)cc2sccc21	/	-1.27
CCOc1ccccc1-n1c(=O)c(C#N)cc2c(=O)n3cc(C)ccc3nc21	1.45	-1.9
Cc1ccc2nc(COc3ccccc3C)[nH]c2c1	-1.43	-1.51

Complete entries as entered above. Screens in order: HIV TAR-Tat	CDC25B-CDK2 inh
CN(C)c1ccc(/C=C/C2=Nc3ccccc3SC(C)(C)C2)cc1 as listed: -1.7	-1.9
NC(N)=NC(N)=Nc1cccc(Cl)c1 as listed: /	-1.47
CCn1cc2nc(SCc3ccccc3)n(Cc3ccccc3)c(=O)c2n1 as listed: 0.68	/
O=C(Cn1cnc2nc3c(cc2c1=O)CCCC3)NCc1ccc2c(c1)OCO2 as listed: 1.27	/
O=S(=O)(Nc1ccc2c(c1)OCCO2)c1cccs1 as listed: /	-0.08

Nothing new here: entries from further up.
SMILES	HIV TAR-Tat	CDC25B-CDK2 inh
N#Cc1c(C2CCCCC2)nc(Sc2ccc(C(F)(F)F)cc2[N+](=O)[O-])[nH]c1=O	/	-0.87
O=S(=O)(c1ccc(Oc2ccccc2)cc1)N1CCc2ccccc2C1	/	1.58
Cc1nn(C)c(C)c1NC(=O)c1ccccc1N	/	-1.1
CCC1CCCCN1CCCNC(=O)C1CCN(c2ncnc3c2nc2n3CCCCC2)CC1 (stereo not drawn)	-1.7	/

Remaining list, next part.
SMILES	HIV TAR-Tat	CDC25B-CDK2 inh
CCOc1ccc(-c2cccc(NS(=O)(=O)c3ccccc3Cl)c2)nn1	0.62	/
O=C(CSc1nc(-c2ccccc2)no1)NCC1CCCO1 (stereo not drawn)	2.1	/
CCOc1ccc(C(C)(C)C)cc1S(=O)(=O)Nc1ccc(Cl)cn1	-0.05	-0.74
COc1ccc(C2c3c(oc4ccccc4c3=O)C(=O)N2c2nnc(C(C)C)s2)cc1OC (stereo not drawn)	1.39	-0.67
COCc1cc(C)nc2sc(C(=O)OC(C)C)c(N)c12	-0.36	-0.71
COc1cc(C2C(C#N)=C(N)Oc3cc(O)ccc32)ccc1OCc1ccccc1F (stereo not drawn)	-0.71	-0.01
COc1cccc(-n2c(=O)[nH]c3c(C(N)=O)nc(C4CCCCC4)nc32)c1	1.25	/
CCOC(=O)N1CCN(C(=O)c2cn(CC(C)C)c(=O)c3cc(OC)c(OC)cc23)CC1	-1.9	-1.27
Cc1csc(C(=O)NNC(=O)C(Cl)Cl)c1	/	-1.27
CCS(=O)(=O)c1ncc(Cl)c(C(=O)Nc2ccccc2Br)n1	0.86	-0.94
CCn1c(=O)c(N2CCC(C(=O)N3CCOCC3)CC2)nc2cccnc21	-1.23	-1.93
COCc1cc(C)nc2sc3c(c12)NC(C)N(c1ccc(OC)cc1)C3=O (stereo not drawn)	1.47	-1.16
